eIF4H inh: human eIF4H binding inhibitors, primary screen, translation initiation inhibitor project, biochemical, uHTS, fluorescence polarization; Eukaryotic translation initiation factor 4H (Homo sapiens), Q15056; inhibition, % at 35 µM; 0.94% of 290,000 active; eIF4H fluorescence polarization binding assay;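 active = 50% or more with normal probe brightness, or confirmed in later tests; about a fifth of its hits are not listed in these tables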;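 also: calls also rest on retests at 20 µM and on dose response follow-up; 0% = protein and probe with vehicle and 100% = probe without protein; strong numbers were not always called active; many hits fall short of the cut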
CSC inhib: cancer stem cell viability inhibitors, primary screen, luminescence | cancer stem cell-like cells viability | inhibition, % at 7.5 µM | 1.1% of 300,000 active;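 active = mean at 75% or more and at least half the replicates too; tested in HMLE shEcad cells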;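 also: 0% = median of negative and 100% = median of positive control wells; the first replicate is given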
PABP polyA inh: PABP poly(A) RNA binding inhibitors, primary screen, biochemical, fluorescence polarization, uHTS. Polyadenylate-binding protein 1 (Homo sapiens), P11940. inhibition, % at 35 µM. 1% of 290,000 active;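 active = 50% or more with normal probe brightness, or confirmed in later tests; about a fifth of its hits are not listed in these tables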;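 also: calls also rest on retests at 20 µM and on dose response follow-up; controls were probe without protein and protein plus probe with vehicle; some compounds called inactive have numbers as strong as hits; many hits fall short of the cut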
Rce1 inhib: yeast Rce1p protease inhibitors, primary screen, biochemical, fluorescence, cell-free homogeneous; CAAX prenyl protease 2 (Saccharomyces cerevisiae (strain ATCC 204508 / S288c)), Q03530; yeast membranes, quenched prenylated peptide cleavage fluorescence; calls only; 0.27% of 290,000 active;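 active = fall in fluorescence gain of 50% or more versus controls, with final raw signal at or below 3038400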;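 also: plate controls were neutral control wells for no effect and wells lacking membranes for full effect; tested at 10 µM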
Target sequence (Q03530 whole entry, looked up): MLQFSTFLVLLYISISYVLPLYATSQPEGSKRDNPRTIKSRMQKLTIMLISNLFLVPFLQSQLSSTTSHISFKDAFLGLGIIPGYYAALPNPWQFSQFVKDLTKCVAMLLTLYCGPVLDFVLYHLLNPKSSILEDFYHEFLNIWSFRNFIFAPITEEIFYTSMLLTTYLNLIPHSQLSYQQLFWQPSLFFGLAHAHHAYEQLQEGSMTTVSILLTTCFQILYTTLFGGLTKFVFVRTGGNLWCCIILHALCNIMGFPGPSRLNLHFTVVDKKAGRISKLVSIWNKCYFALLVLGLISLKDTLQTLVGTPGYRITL
Env fusion inh: inhibitors of HIV-1 Env-driven cell-cell fusion, primary screen, HeLa-JRFL effector, CEM21 target cells, luciferase | inhibition, % at 12.3 µM | 1.1% of 360,000 active | AID 651610, 2012;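 active = mean replicate inhibition score of at least 50 and every replicate individually at or above 50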;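 also: 0% = plate neutral controls and 100% = maraviroc near 300 nM; one replicate is shown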
MT1-MMP act inh: blockers of MT1-MMP proenzyme processing, primary screen, HT1080 RFP-PRO-GFP cells, GFP/RFP fluorescence; GFP/RFP ratio fluorescence, overnight; percent of plate control window, DMSO zero; AID 651647, 2012; GFP/RFP ratio change, % at 20 µM; Matrix metalloproteinase-14 (Homo sapiens), P50281; 0.061% of 360,000 active;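 active = GFP/RFP ratio change of at least 30% with cell ATP level not reduced by more than half and red fluorescence within 50% of control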; also: strong numbers were not always called active
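Test system: HT1080 RFP-PRO-GFP cells; Benchmarks: DMSO and RFP-L50D-GFP cell wells; Timing: cells overnight before dosing, compound overnight, 37 °C, 5% CO2; Compound: one 20 µM compound dose with 1% DMSO; Read-out: GFP/RFP fluorescence ratio.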
Yeast UUG start: modulators of yeast start codon fidelity, primary screen, whole organism, S. cerevisiae, single point, plate reader | 0.13% of 350,000 active | S. cerevisiae UUG-firefly luciferase reporter, luminescence/redox ratio | activity score, % at 18.7 µM;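 active = replicate mean at a twofold rise or more, about +100% in these data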;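 also: firefly luciferase made from a UUG start codon reports start codon fidelity; reporter light over untreated wells divided by growth signal over untreated wells; some hits fall short of that in this replicate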
eIF4H inh retest: recorded beside eIF4H inh, whose call it bears; inhibition, %; compound at 20 µM; confirmation average;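 mean of two retest wells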
PABP polyA inh retest: also measured in PABP polyA inh; calls as there; inhibition, %; compound at 20 µM; confirmation repeats;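 mean of two retest wells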
MT1-MMP act inh RFP: also measured in MT1-MMP act inh; calls as there; RFP signal change, %; measured here: RFP expression control read;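 0 = vehicle wells; hits needed this value within 50% of zero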
* = called active by the depositor. This is a subset (hit frequency here may not be typical).

For CC(=O)Nc1ccc(C(=O)NNS(=O)(=O)c2ccc(C)cc2)cc1 the results were eIF4H inh -4.1, CSC inhib 2.0, PABP polyA inh 6.3, Rce1 inhib inactive, Env fusion inh 6.7, MT1-MMP act inh 1.0, Yeast UUG start -19.6 and MT1-MMP act inh RFP 2.0.
`CN(c1ccc([N+](=O)[O-])cc1C(=O)Nc1ccccc1)C1CCCCC1` gave eIF4H inh -1.6, CSC inhib 13.0, PABP polyA inh 9.2, Rce1 inhib inactive, MT1-MMP act inh -1.2, Yeast UUG start -23.0 and MT1-MMP act inh RFP -2.3.
For c1ccc(-c2ccc(-c3csnn3)cc2)cc1 the results were eIF4H inh -10.5, PABP polyA inh -8.3, Rce1 inhib inactive, MT1-MMP act inh -5.6, Yeast UUG start -13.0 and MT1-MMP act inh RFP -3.8.
Screening COc1cc(C2OC(=O)C3C(c4ccc(OC(C)=O)c(OC)c4)OC(=O)C23)ccc1OC(C)=O (stereo unspecified) returned CSC inhib -3.9, Rce1 inhib inactive, Env fusion inh 8.7, MT1-MMP act inh 0.4 and MT1-MMP act inh RFP 3.2.
`CC(C)NCC(O)COCCOc1ccc(Br)cc1` (stereo unspecified) gave eIF4H inh 3.2, CSC inhib 6.9, PABP polyA inh 70.2, Rce1 inhib active, Env fusion inh 15.4, MT1-MMP act inh 3.1, eIF4H inh retest 0.8, PABP polyA inh retest 11.9 and MT1-MMP act inh RFP 2.7.
For CCOC(=O)C(=O)NCC1CCCN1S(=O)(=O)c1cccs1 (stereo unspecified) the results were Env fusion inh -0.6, MT1-MMP act inh 1.3, Yeast UUG start -25.9 and MT1-MMP act inh RFP 1.5.
Screening C#CCOCCOCCOCCNc1nc(N2CCOCC2)nc(N2CCN(C(=O)CCCCCCCCCCNC(=O)[C@H](CO)n3cc(CCCSC)nn3)CC2)n1 returned CSC inhib 11.1, Env fusion inh 17.1, MT1-MMP act inh 4.7, Yeast UUG start -10.6 and MT1-MMP act inh RFP -3.0.
For O=C(NC(=S)Nc1ccc2c(c1)OCCO2)c1cccc(Br)c1 the results were eIF4H inh 0.4, CSC inhib 2.2, PABP polyA inh 5.4, Rce1 inhib inactive, Env fusion inh -62.5, MT1-MMP act inh -0.3 and MT1-MMP act inh RFP 3.0.
For CCOc1ccc(N(CC(=O)NCCc2ccccc2)C(=O)CCC(=O)Nc2cc(C)ccn2)cc1 the results were eIF4H inh -5.4, PABP polyA inh -8.0, Rce1 inhib inactive, Env fusion inh 17.8, MT1-MMP act inh -5.9, Yeast UUG start -11.1 and MT1-MMP act inh RFP -4.9.
For O=C(c1cc(COc2ccccc2)on1)N1CCCC(OCc2cccnc2)C1 (stereo unspecified) the results were eIF4H inh -9.1, CSC inhib -4.5, PABP polyA inh -5.2, Rce1 inhib inactive, MT1-MMP act inh 1.2, Yeast UUG start -20.2 and MT1-MMP act inh RFP -4.0.
CCOC(=O)CCNC(=O)CNC(=O)OCc1ccccc1 was read as eIF4H inh 5.8, CSC inhib -4.1, PABP polyA inh 4.0, Rce1 inhib inactive, MT1-MMP act inh 3.7, Yeast UUG start -13.2 and MT1-MMP act inh RFP 6.2.
For CC(=O)c1ccc(S(=O)(=O)NCCCC(=O)N(C)Cc2ccc3c(c2)OCO3)cc1 the results were CSC inhib -6.9, MT1-MMP act inh -1.7, Yeast UUG start 13.9 and MT1-MMP act inh RFP -7.0.
`CCN(Cc1nc2cc(Cl)ccc2c(=O)[nH]1)C(=O)c1cccc(OCc2c(C)noc2C)c1` gave CSC inhib 29.8, Env fusion inh 4.3, MT1-MMP act inh 4.3, Yeast UUG start 1.9 and MT1-MMP act inh RFP -9.5.
`CCC1(C)OCC(Cn2c3ccccc3c3ccccc32)O1` (stereo unspecified) gave eIF4H inh 0.9, CSC inhib 48.0, PABP polyA inh 9.3 and Rce1 inhib inactive.
`O=[N+]([O-])c1ccc(Cl)c(S(=O)(=O)Nc2ccc(-c3ccc(N4CCCC4)nn3)cc2)c1` gave CSC inhib 6.5, Rce1 inhib inactive, MT1-MMP act inh 3.6, Yeast UUG start 31.0 and MT1-MMP act inh RFP -0.9.
O=C(Cc1ncc(C(F)(F)F)cc1Cl)Nc1ccc(F)cc1 was read as eIF4H inh 10.3, PABP polyA inh 5.0, Rce1 inhib inactive, MT1-MMP act inh 1.4, Yeast UUG start -18.1 and MT1-MMP act inh RFP -1.0.
For COc1cc(NC(=O)CN2CCN(C(=O)c3ccco3)CC2)c(C)cc1[N+](=O)[O-] the results were Env fusion inh 2.6, MT1-MMP act inh 3.4, Yeast UUG start -5.0 and MT1-MMP act inh RFP -1.9.
`COc1cc(C(=O)Nc2cc3c4c(c2)CC(=O)N4CCC3)cc(OC)c1OC` gave CSC inhib -1.6, Rce1 inhib inactive, Env fusion inh -4.2, MT1-MMP act inh 12.6, Yeast UUG start -12.2 and MT1-MMP act inh RFP 1.3.
For CCn1cnc2c1c(=O)n(Cc1csc(-c3ccccc3)n1)c(=O)n2Cc1ccccc1 the results were eIF4H inh -7.1, CSC inhib 12.3, PABP polyA inh 3.4, Env fusion inh 42.5, MT1-MMP act inh 2.8, Yeast UUG start -4.8 and MT1-MMP act inh RFP -8.1.
CC1CCN(S(=O)(=O)c2ccc3[nH]cc(C(=O)NCCN4CCOCC4)c(=O)c3c2)CC1 was read as eIF4H inh 6.2, CSC inhib 2.8, PABP polyA inh -0.7, Rce1 inhib inactive, MT1-MMP act inh -2.1, Yeast UUG start 9.4 and MT1-MMP act inh RFP -3.5.

By substructure, the entries above with a nitro group on carbon
`CN(c1ccc([N+](=O)[O-])cc1C(=O)Nc1ccccc1)C1CCCCC1` gave eIF4H inh -1.6, CSC inhib 13.0, PABP polyA inh 9.2, Rce1 inhib inactive, MT1-MMP act inh -1.2, Yeast UUG start -23.0 and MT1-MMP act inh RFP -2.3.
`O=[N+]([O-])c1ccc(Cl)c(S(=O)(=O)Nc2ccc(-c3ccc(N4CCCC4)nn3)cc2)c1` gave CSC inhib 6.5, Rce1 inhib inactive, MT1-MMP act inh 3.6, Yeast UUG start 31.0 and MT1-MMP act inh RFP -0.9.
For COc1cc(NC(=O)CN2CCN(C(=O)c3ccco3)CC2)c(C)cc1[N+](=O)[O-] the results were Env fusion inh 2.6, MT1-MMP act inh 3.4, Yeast UUG start -5.0 and MT1-MMP act inh RFP -1.9.

The listing continues.
Screening Cc1cc(NC(=O)COC(=O)c2ccc(OC(F)(F)F)cc2)no1 returned Env fusion inh -13.9, MT1-MMP act inh 1.1, Yeast UUG start -17.9 and MT1-MMP act inh RFP 4.3.
For Cc1ccccc1NC(=O)COc1ccc(S(=O)(=O)N2CCCC2)cc1C the results were eIF4H inh 15.6, CSC inhib -9.3, PABP polyA inh 5.8, Rce1 inhib inactive, Env fusion inh 5.4, MT1-MMP act inh 1.6, Yeast UUG start -16.1 and MT1-MMP act inh RFP 2.1.
For CC(C)CNS(=O)(=O)c1ccc(S(=O)(=O)N2CCN(C3CCCC3)CC2)cc1 the results were eIF4H inh -13.5, CSC inhib -13.8, PABP polyA inh 0.9, Rce1 inhib inactive, Env fusion inh 15.6, MT1-MMP act inh -0.9, Yeast UUG start -0.8 and MT1-MMP act inh RFP -5.6.
For COc1ccc(NS(=O)(=O)c2cc(NC(=O)[C@H](C)NC(N)=O)ccc2N2CCCC2)cc1 the results were CSC inhib -2.4, MT1-MMP act inh 0.0, Yeast UUG start -2.4 and MT1-MMP act inh RFP 3.1.
COc1ccc(-c2noc(-c3ccc(Cl)cc3)n2)cc1 was read as eIF4H inh 5.0, CSC inhib -7.9, PABP polyA inh 3.1 and Rce1 inhib inactive.
Cc1ccc(C(=O)NC=C(Cl)Cl)cc1 was read as eIF4H inh 0.5, PABP polyA inh 5.7, Rce1 inhib inactive, Env fusion inh -16.6, MT1-MMP act inh -0.2, Yeast UUG start -13.6 and MT1-MMP act inh RFP 1.9.
CC(=O)c1ccc(OCC(O)Cn2nnc3ccccc32)cc1 (stereo unspecified) was read as eIF4H inh -2.4, CSC inhib -0.5, PABP polyA inh -4.0, Rce1 inhib inactive, MT1-MMP act inh 11.2, Yeast UUG start -7.9 and MT1-MMP act inh RFP -0.3.
`COc1ccc(C2=CC(c3cc(OC)c(OC)c(OC)c3)NC(=S)N2)cc1` (stereo unspecified) gave eIF4H inh -2.6, CSC inhib 25.0, PABP polyA inh 6.1, Rce1 inhib inactive, MT1-MMP act inh -24.7, Yeast UUG start -9.5 and MT1-MMP act inh RFP 11.7.
Screening CCOc1cc(S(=O)(=O)NCc2ccc3c(c2)OCO3)ccc1F returned eIF4H inh -9.3, CSC inhib 20.2, PABP polyA inh -9.9, MT1-MMP act inh 1.9, Yeast UUG start 9.4 and MT1-MMP act inh RFP 6.0.
`CCOC(=O)c1c(NC(=O)CSc2nc3cccnc3n2C)sc(C(C)=O)c1C` gave eIF4H inh 8.7, PABP polyA inh 10.7, Rce1 inhib inactive, MT1-MMP act inh -3.5, Yeast UUG start -6.8 and MT1-MMP act inh RFP -18.8.
CC(NC(=S)NNS(=O)(=O)c1cccc([N+](=O)[O-])c1)c1ccccc1 (stereo unspecified) was read as eIF4H inh 5.9, CSC inhib -6.4, PABP polyA inh 2.6, Rce1 inhib inactive, Env fusion inh -8.8, MT1-MMP act inh -0.2, Yeast UUG start -37.6 and MT1-MMP act inh RFP 1.1.
CCn1c(C(=O)O)c(CC(=O)Nc2ccccc2F)c2ccccc21 was read as eIF4H inh -2.0, CSC inhib 3.8, PABP polyA inh -2.2, Rce1 inhib inactive, Env fusion inh 0.5, MT1-MMP act inh -0.4 and MT1-MMP act inh RFP 3.3.
Cc1ccc(C)c(N2CCN(C(=O)c3ccc(NS(=O)(=O)c4c(C)noc4C)cc3)CC2)c1 was read as eIF4H inh -7.1, CSC inhib -0.4, PABP polyA inh -3.8, Rce1 inhib inactive, MT1-MMP act inh 12.0, Yeast UUG start 7.2 and MT1-MMP act inh RFP 2.5.
O=C1Cc2ccccc2C(c2c(Cl)cccc2Cl)N1 (stereo unspecified) was read as eIF4H inh -11.8, CSC inhib -8.8, PABP polyA inh 1.2, Rce1 inhib inactive, Env fusion inh 4.9, MT1-MMP act inh 1.2, Yeast UUG start -1.9 and MT1-MMP act inh RFP -0.5.
`CC(C)=NOCC(=O)Nn1c(COc2c(C)cccc2C)nc2ccccc2c1=O` gave eIF4H inh -13.5, CSC inhib -6.1, PABP polyA inh 1.4, Rce1 inhib inactive, Env fusion inh 8.5, MT1-MMP act inh -0.5 and MT1-MMP act inh RFP 0.7.
`CC(=O)C12OC1CC1C3CCC4=CC(=O)CCC4(C)C3CCC12C` (stereo unspecified) gave eIF4H inh 0.6, CSC inhib -1.4, PABP polyA inh 1.1, Rce1 inhib inactive, Env fusion inh -97.0, MT1-MMP act inh 3.0, Yeast UUG start -8.7 and MT1-MMP act inh RFP -0.6.
CCOC(=O)C1CCN(c2nc(C)nc3c2oc2ccccc23)CC1 was read as eIF4H inh -6.1, CSC inhib -7.9, PABP polyA inh 13.7, Rce1 inhib inactive, MT1-MMP act inh -0.7, Yeast UUG start -6.4 and MT1-MMP act inh RFP -11.9.

Screening results as filed in PubChem BioAssay.
